MT1-MMP reporter: inhibitors of MT1-MMP promoter transcription, cell-based, luciferase reporter, luminescence (AID 618). MT1-MMP promoter luciferase reporter cells, luminescence. calls from a first round at 10 µM; hits with a dose series show EC50 in µM. 87,000 compounds, 0.62% hits;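 active means over half of the reporter light lost at 10 µM or EC50 under 50 µM; inactive means the rest and hits that failed the dose series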;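 further: actives suppress MT1-MMP promoter-driven transcription so potencies describe inhibitors; HT1080 fibrosarcoma cells; overnight exposure; toxic or luciferase-blocking compounds were not removed from the actives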
WNV NS2B-NS3 inh: inhibitors of WNV NS2B-NS3 protease, primary screen, biochemical, fluorogenic substrate | Genome polyprotein (West Nile virus), P06935 | fluorogenic substrate Ex360/Em465; active compounds read low | z-score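 (tested at a level between 10 and 100 µM)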 | 65,000 compounds, 0.18% hits | AID 577, 2007;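 active means z-score at -3 or under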;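 further: score is relative to mean and spread of the compound wells of a plate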
Target sequence (P06935 1371-1501 limits assumed): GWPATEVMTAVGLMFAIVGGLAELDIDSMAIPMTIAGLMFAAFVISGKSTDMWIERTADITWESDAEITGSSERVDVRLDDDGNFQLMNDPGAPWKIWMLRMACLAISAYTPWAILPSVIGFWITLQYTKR
Target sequence (P06935 1502-1679 limits assumed): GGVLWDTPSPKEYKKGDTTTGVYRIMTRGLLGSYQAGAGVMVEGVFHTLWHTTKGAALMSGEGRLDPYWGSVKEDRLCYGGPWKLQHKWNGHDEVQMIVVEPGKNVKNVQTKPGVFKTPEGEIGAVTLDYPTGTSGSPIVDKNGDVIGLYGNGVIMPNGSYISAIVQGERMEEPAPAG
Hsc70: Hsc70 inhibitors, probe displacement, primary screen, biochemical, fluorescence polarization (AID 568); Heat shock cognate 71 kDa protein (Homo sapiens); Hsc70 fluorescence polarization, probe displacement; higher % means a stronger effect; strong numbers were not always called active; displacement, % at 20 µM; hits with a dose series show IC50 in µM; 83,000 tested, under 10 active;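 active means displacement above 50% without optical interference and an IC50 on retest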;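 further: ATPase domain with a fluorescein-tagged ATP probe; 0% = vehicle and 100% = excess ADP; read after one hour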
* hit, by the source's call; i = inactive; x = not tested or not shown. No enrichment for hits, and some 0.8% of all compounds hit somewhere here.

SMILES	MT1-MMP reporter	WNV NS2B-NS3 inh	Hsc70
O=C(CSc1nnc(-c2ccc(S(=O)(=O)N3CCOCC3)cc2)o1)c1ccccc1F	i	-0.87	0.1%
Cc1nn(Cc2ccccc2Cl)c(C)c1N	i	0.94	-0.4%
Cc1ccc(-n2ncc3c(=O)[nH]c(SCC(=O)N4CCCC4)nc32)cc1C	i	-0.31	-5.7%
CCOC(=O)c1cccc(NC2c3ccccc3C(=O)N2Cc2ccco2)c1 (stereo not given)	i	-0.49	1.9%
COc1cccc(-c2cc(C(=O)O)[nH]n2)c1	i	x	2.2%
S=C(c1ccc(N2CCOCC2)cc1)N1CCCCC1	i	-0.31	0.9%
CCCC1CCC(C(=O)Nn2c(C)nc3ccccc3c2=O)CC1 (stereo not given)	i	-0.79	-4.6%
CCOC(=O)C1=C(CSc2nc(C)ccc2C#N)OC(N)=C(C#N)C1c1cccc(OC)c1OC (stereo not given)	i	-0.75	-7.4%
CCC(OC(=O)CC1Sc2ccccc2NC1=O)C(=O)NCC1CCCO1 (stereo not given)	i	1.3	-1.6%
O=C(NCc1ccccc1)NC1CCCCC1	i	1.47	4.8%
Cc1nc2ccccc2n1CC(=O)OCC(=O)NCCc1ccccc1	i	x	0.2%
O=C(Nc1ccc(Cl)cc1)N1CCN(c2ccc3nnc(-c4ccc(F)cc4)n3n2)CC1	i	0.16	-8.8%
Cc1ccc(Cl)cc1N(CC(=O)N1CCCCCC1)S(C)(=O)=O	i	0.31	5.9%
NCCCCCc1nnc(SC/C=C/c2ccccc2)o1	i	0.09	3.4%
COc1cc(C2c3c(-c4cc(C)cc(C)c4O)n[nH]c3C(=O)N2CCCO)cc(OC)c1OC (stereo not given)	i	0.18	6.1%
COc1ccccc1NC(=O)CSc1nnc(Cc2cc(=O)[nH]c(=O)[nH]2)n1-c1ccccc1	i	0.81	3.1%
CC(=O)Nc1ccc(S(=O)(=O)Nc2ccc(S(=O)(=O)N3CCCC3)cc2)cc1	i	x	3.3%
COc1ccc(NC(=O)N(Cc2cc3cc(OC)ccc3[nH]c2=O)CC2CCCO2)cc1 (stereo not given)	i	-0.63	6.0%
COC(=O)c1ccc(C(=O)OC)c(NC(=O)COC(=O)C2CCCCC2)c1	i	x	3.5%
Clc1ccc2oc(-c3cccnc3)nc2c1	i	x	-1.5%
O=C(CN1CCN(C(=O)c2ccco2)CC1)Nc1ccc(Cl)c(C(F)(F)F)c1	i	-2.02	-2.0%
CCOP(=O)(c1ccc(N(C)C)cc1)C(O)c1ccc(Cl)cc1 (stereo not given)	i	-0.99	-1.0%
O=C(CN1C(=O)c2cccc3cccc1c23)N1CCN(c2cccc(Cl)c2)CC1	i	1.21	-3.8%
Cn1c(Cn2c(=O)sc3ccccc32)nnc1SCC(=O)NCC1CCCO1 (stereo not given)	i	-0.44	3.8%
CC(C)CN(CC(C)C)C(=O)C12CCC(C)(C(=O)O1)C2(C)C (stereo not given)	i	x	2.5%
c1cncc(-c2noc(CC3CCCCC3)n2)c1	i	x	-4.3%
Cn1c(=O)c2c(nc(N3CCOCC3)n2CCSc2nc3ccccc3s2)n(C)c1=O	i	-1.01	-1.8%
CCn1c(=O)cc(OCC(=O)NCc2ccc(C)o2)c2ccccc21	i	-0.24	-0.5%
CCOC(=O)C1CCN(Cc2ccc(OC)c(C)c2OC)CC1	i	0.79	5.6%
O=C(CSc1nc2ccccc2s1)CSc1nc2ccccc2s1	i	x	0.7%

Single records, from the list above.
CC(C)CN(CC(C)C)C(=O)C12CCC(C)(C(=O)O1)C2(C)C (stereo not given) in the list: MT1-MMP reporter = i; WNV NS2B-NS3 inh = x; Hsc70 = 2.5%
c1cncc(-c2noc(CC3CCCCC3)n2)c1 in the list: MT1-MMP reporter = i; WNV NS2B-NS3 inh = x; Hsc70 = -4.3%

Next part:
SMILES	MT1-MMP reporter	WNV NS2B-NS3 inh	Hsc70
Cc1cc2nncn2c(Cc2ccccc2)n1	i	0.46	-9.0%
Cc1cc(C)c(C(=O)C2OC(=O)C(C)(C)C(=O)C2(C)C)c(C)c1 (stereo not given)	i	x	1.6%
COC(=O)c1cc(-c2ccc(OC)c(OC)c2)on1	i	-0.95	1.7%
COc1cccc(-c2nnc(-c3ccc(C)o3)o2)c1	i	x	-1.8%
CC1Cc2nc(SCC(=O)Nc3ccc4c(c3)OCO4)n(Cc3ccccc3)c(=O)c2S1 (stereo not given)	i	-1.15	-1.1%
Cc1ccc(-c2noc(-c3ccccc3C(=O)NCC3CCCO3)n2)cc1 (stereo not given)	i	-0.92	4.4%
CC(C)(C)c1nn(-c2ccccc2)c2[nH]c(=O)c(CNc3ccc4c(c3)OCCO4)cc12	i	x	0.8%
COc1ccc(C(=O)/C=C/Nc2ccccn2)cc1	0.19µM*	x	0.6%
COc1ccc(N2C(=O)CCC(C(=O)NCc3ccccn3)C2c2ccc(OC)c(OC)c2)cc1 (stereo not given)	i	-0.05	-3.1%
Cc1ccc(NC(=O)N2CCN(c3ccccn3)CC2)cc1	i	x	4.6%
CCN(CCNC(=O)Nc1ccc(Cl)cc1)c1ccccc1	i	-0.8	-0.4%
O=C(Cn1cnc2ccccc2c1=O)Nc1ccc(-c2nnc3n2CCCCC3)cc1	i	0.72	0.5%
CCOc1ccc(S(=O)(=O)N(C)c2ccc(OCC(=O)Nc3ccc4[nH]c(=O)[nH]c4c3)cc2)cc1	i	1.17	-9.8%
COc1ccc2c(c1)N1CCN=C1N2C	i	-0.39	-5.3%
Cc1nn2c(-c3ccncc3)nnc2c2ccccc12	i	-1.81	7.1%
O=C(O)CCCNC(=O)OCc1ccccc1	i	-0.61	1.8%
C1CCN=C(Nc2nn[nH]n2)CC1	i	-0.91	-3.4%
COc1ccccc1NC(=O)CN1CCN(CC(=O)Nc2ccc(Cl)c(C(F)(F)F)c2)CC1	i	0.71	-11.5%
CCOC(=O)CSC1=C(C#N)C(=O)NC(c2ccc(OC)c(OC)c2)S1 (stereo not given)	i	0.79	0.6%
Cc1cc(C)nc(SCc2nnc(SCC(=O)Nc3ccc(C)c(C)c3)o2)n1	i	1.08	0.1%
COC(=O)c1sc2nc(CN3CCOCC3)nc(N3CCOCC3)c2c1C	i	0.17	2.8%
CCOC(=O)c1cccc(NC(=O)c2ccco2)c1	i	-1.11	3.9%
O=C(CCN1CCCC1)Nc1ccc(Br)cc1	i	x	-6.6%
CCOC(=O)N1CCN(C(=O)COc2ccc(S(=O)(=O)NC3CCCCC3)cc2C)CC1	i	-0.94	4.9%
CC1=NC(=O)C(N=Nc2cccc3ccccc23)N1c1ccccc1 (stereo not given)	i	x	1.5%
CC(=O)N1CCN=C1SCc1ccc(F)cc1	i	-1.34	3.2%
COc1ccc(N(CC(=O)NCc2cccs2)S(=O)(=O)c2c(C)n[nH]c2C)cc1	i	-1.05	-1.6%
COc1ccccc1NC1SC(=O)N(c2ccccc2)C1=O (stereo not given)	i	-0.6	6.1%
O=C(O)c1cccc(CSc2nnc(Cc3ccccc3)o2)c1	i	-0.87	-1.9%
c1ccc(/N=C2\N=C(Nc3ccccn3)c3ccccc32)nc1	i	0.27	-3.2%
COc1ccc(CN2CCN(C(=O)c3cccs3)CC2)cc1Br	i	-0.32	-4.6%
CC(CN1CCCC(C(N)=O)C1)c1ccccc1 (stereo not given)	i	1.06	1.8%
CSc1cccc(NC(=O)CN(C)S(=O)(=O)c2ccc(F)cc2)c1	i	-0.12	2.0%
Cc1ccnc(SCCn2c(N3CCC(C)CC3)nc3c2c(=O)[nH]c(=O)n3C)n1	i	2.26	-2.0%
Cc1cc(C)cc(-n2nc(C)cc2N)c1	i	x	-2.2%
COC(=O)c1cc(-c2c(C)oc3cc(OC)ccc3c2=O)c(C)o1	i	0.86	1.5%
O=C(O)C1C2C=CC(C2)C1C(=O)NC1CCN(Cc2ccccc2)CC1 (stereo not given)	i	0.02	4.1%
O=C(Cn1cc2c(n1)CCCC2)NCCCN1CCCC1	i	-0.18	0.1%
CCSc1nc2c(cnn2-c2ccc(C)c(C)c2)c(=O)[nH]1	i	0.54	3.5%
CCOC(=O)c1cn(-c2ccccc2)nc1-c1cccnc1	i	-0.36	-5.2%

Overlap with the part before: 6 entries; new compounds follow.
SMILES	MT1-MMP reporter	WNV NS2B-NS3 inh	Hsc70
Cc1cc(C)cc(-n2nc(C)cc2N)c1	i	x	-2.2%
COC(=O)c1cc(-c2c(C)oc3cc(OC)ccc3c2=O)c(C)o1	i	0.86	1.5%
O=C(O)C1C2C=CC(C2)C1C(=O)NC1CCN(Cc2ccccc2)CC1 (stereo not given)	i	0.02	4.1%
O=C(Cn1cc2c(n1)CCCC2)NCCCN1CCCC1	i	-0.18	0.1%
CCSc1nc2c(cnn2-c2ccc(C)c(C)c2)c(=O)[nH]1	i	0.54	3.5%
CCOC(=O)c1cn(-c2ccccc2)nc1-c1cccnc1	i	-0.36	-5.2%
CCCc1cc(=O)[nH]c(SCC(=O)OCc2ccccc2)n1	i	0.93	0.8%
Cc1ccc(NS(=O)(=O)c2cc(C(=O)O)ccc2Cl)cc1	i	0.44	3.4%
Cc1c(C(=O)NC(C)C)sc2ncn(CC(=O)N3CCC(C)CC3)c(=O)c12	i	x	3.2%
CC(=O)C1(O)C(C)CC2C3CCC4CC(O)CCC4(C)C3=CCC21C (stereo not given)	i	0.19	1.6%
O=C(NC12CC3CC(CC(C3)C1)C2)C1=COCCO1	i	1.11	4.9%
c1ccc2c(c1)CC1(CCCCC1)n1nnnc1-2	i	x	2.3%
CC(C)NCC(O)COc1c(F)cc(Br)cc1F (stereo not given)	i	0.54	1.1%
Cc1cc(Cl)c(S(=O)(=O)Nc2ccc(Cl)cn2)cc1OCC(N)=O	i	x	0.7%
CCOC(=O)N1CCC(NC(=O)c2cc(C)c3c(C)nn(-c4ccccc4)c3n2)CC1	i	-0.06	-4.3%
CCc1nnc(NC(=O)CCC(=O)N2CCN(c3ccccn3)CC2)s1	i	x	0.7%
CCOC(=O)c1c(NS(=O)(=O)c2cccc(OC)c2)sc2c1CCC2	i	-1.76	-1.8%
Cn1c(CCC(=O)Nc2ccc(N3CCOCC3)cc2)nc(=O)c2ccccc21	i	-0.36	-3.0%
COc1cc(NC2c3ccccc3C(=O)N2c2ccc(C)cn2)cc(OC)c1OC (stereo not given)	i	0.05	-3.7%
CCOc1ccc2cc(/C=C/C(=O)c3ccco3)c(Cl)nc2c1	i	x	-14.9%
O=C(COc1ccc2ccccc2c1)NC1CC1	i	x	5.1%
CCOc1ccc(S(=O)(=O)N2CCN(Cc3ccccc3)CC2)c2cccnc12	i	0.27	4.7%
Cc1cc(C)n(CC2CC(=O)N(c3ccc(F)c(Cl)c3)C2=O)n1 (stereo not given)	i	1.3	4.6%
COc1ccc(C(=O)CCN2CCCCCC2)cc1	i	-0.11	4.7%
COc1ccc(CC(=O)Nc2cc(C)on2)cc1	i	-0.77	-3.2%
CCCSc1nc(C)cc(C)c1C(N)=O	i	x	0.2%
N#Cc1cc(-c2ccccc2)oc1NC(=O)c1ccco1	i	0.63	-2.4%
Cc1c(N(C)C(=O)c2ccc3c(c2)OCO3)c(=O)n(-c2ccccc2)n1C	i	x	-2.2%
O=C(CCN1C(=O)C2C3C=CC(C3)C2C1=O)Nc1ccc2c(c1)OCO2 (stereo not given)	i	-1.14	-3.0%
Cn1c(=O)c2c(-c3ccccc3)n(-c3ccccc3O)cc2n(C)c1=O	i	0.12	2.3%
CCn1cnc2sc(C(=O)N(Cc3ccc(N(C)C)cc3)Cc3ccco3)c(C)c2c1=O	i	1.35	-14.1%
O=C(c1ccco1)N1CCN(C(c2ccccc2Cl)c2nnnn2Cc2ccco2)CC1 (stereo not given)	i	-1.06	-2.0%
CC(=O)N1CCC2(CC1)CC(=O)c1cc(OCC(=O)NCc3ccc(C)cc3)ccc1O2	i	1.57	-1.6%
Cc1cc(NCCN2CCCCC2)n2c(nc3ccccc32)c1C#N	i	0.84	4.2%
CC1=C(C(=O)NC(C)c2ccc3c(c2)OCCO3)C2(CCC(C)CC2)OC1=O (stereo not given)	i	1.24	0.1%
CC(C)Cc1nnc(NC(=O)CSc2ccccn2)s1	i	x	-0.7%
Nc1nc(-c2ccc(Cl)cc2)nn1C(=O)c1cccnc1	i	0.17	1.1%
Cc1ccc2c(c1)NC(=O)C(CC(=O)O)O2 (stereo not given)	i	-0.51	5.4%
O=C(c1cc(-c2ccncc2)nc2ccccc12)N1CCN(c2ccc(N3CCOCC3)nn2)CC1	i	-0.44	-2.3%
COc1cccc(NC(=O)CN(c2cccc(C(F)(F)F)c2)S(C)(=O)=O)c1	i	-0.04	2.2%
O=C1C2C3CCCC3=C3CCCC3C2C(=O)N1c1ccccc1 (stereo not given)	i	1.03	-2.5%
Cc1ccnc(N2CCN(c3cc(C)c(C#N)c4nc5ccccc5n34)CC2)c1	i	0.41	-5.1%
CN1CCN(C(=O)C2CC(c3c(F)cccc3Cl)=NO2)CC1 (stereo not given)	i	0.64	1.5%
COC(=O)c1ccc(C(=O)OC)c(NC(=O)Nc2ccc3c(c2)OCO3)c1	i	-0.3	-0.5%
